# Tgondii IFNg = T. gondii growth inhibition under IFN-gamma | Toxoplasma gondii growth in IFN-gamma-treated host cells; hits give low values; reference of the scale not given here | activity change, negative = inhibition, %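 (about 20 µM by stock and volumes)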 | 69,000 tested, 3.8% active | AID 1259416;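 active means below -70%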;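 further: host cells are HeLa cells infected with Toxoplasma gondii; parasite growth read as luciferase light; one replicate is shown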
# * marks the source's active call; other numbers are inactive results; i = inactive; & = joins results of further samples.
SMILES,Tgondii IFNg
O=C(OCC#CCSc1nc2ccccc2s1)c1ccco1,62.1
CN1c2ccc(Br)cc2[C@@H]2[C@@H](CCN2S(=O)(=O)c2ccccc2F)[C@H]1CO,-25.0
Cc1cc(C)n(CCC(=O)N2CCN(Cc3ccco3)C(CCO)C2)c(=O)n1 (stereo unspecified),3.4
Cc1noc([C@H]2C[C@@H]3OCC[C@@H]3N(C(=O)c3ccoc3)C2)n1,5.8
Nc1ccnc(N2CCC(c3[nH]ncc3-c3cccc(F)c3)CC2)n1,-53.0
Cc1oc(-c2cccc(Cl)c2)nc1CN1CCN(C(=O)Nc2cccc(Cl)c2)CC1,-3.1
COc1cc(N2CCCC3(CCCC(=O)N3)C2)ncn1 (stereo unspecified),8.8
Cc1ccc(NC(=O)CC(=O)NCc2cnc3c(C)cccn23)cc1,13.4
COc1ccccc1-c1noc(C2CCCN2C(=O)c2ccc3cc[nH]c3c2)n1 (stereo unspecified),-1.9
CC(C)(C)NC(=O)N1CCC(Nc2nccc(C(F)(F)F)n2)CC1,-62.4

# Overlap with the part before: five compounds, then new ones.
SMILES,Tgondii IFNg
Cc1oc(-c2cccc(Cl)c2)nc1CN1CCN(C(=O)Nc2cccc(Cl)c2)CC1,-3.1
COc1cc(N2CCCC3(CCCC(=O)N3)C2)ncn1 (stereo unspecified),8.8
Cc1ccc(NC(=O)CC(=O)NCc2cnc3c(C)cccn23)cc1,13.4
COc1ccccc1-c1noc(C2CCCN2C(=O)c2ccc3cc[nH]c3c2)n1 (stereo unspecified),-1.9
CC(C)(C)NC(=O)N1CCC(Nc2nccc(C(F)(F)F)n2)CC1,-62.4
COc1ccc(N(Cc2nc(-c3ccccc3)oc2C)S(=O)(=O)c2ccccc2C)cc1,0.4
O=c1[nH]c2ccccc2nc1C(F)(F)F,-29.4
O=C(CC1Nc2c3ccccc3nc(=S)n2C1=O)NCc1ccccc1Cl (stereo unspecified),-13.6
O=C(Nc1cc(C(F)(F)F)cc(C(F)(F)F)c1)c1csc(-c2ccc(Cl)cc2)c1,48.3
O=C(c1cc2cccnc2n(Cc2ccccc2F)c1=O)N1CCN(Cc2ccccc2)CC1,34.4
Cc1ccc(CN2C[C@H]3COC[C@@]3(COCC3CC3)C2)o1,2.5
CC(NC1CSCCSC1)c1cn2ccsc2n1 (stereo unspecified),6.1
CC(C)(O)CC[C@@H](O)[C@](C)(O)C1CC[C@@]2(O)C3=CC(=O)C4C[C@@H](O)[C@@H](O)C[C@]4(C)C3CC[C@]12C (stereo partly specified),-41.5
Fc1ccc(-n2cc(C3Nc4ccccc4CO3)cn2)cc1 (stereo unspecified),168.5
Cc1ccc(C)c(CN2CCC(CNS(=O)(=O)c3ccc4[nH]c(=O)ccc4c3)CC2)c1,-49.6
Cc1cc(CSc2nc3ccccc3[nH]2)c(C)cc1CSc1nc2ccccc2[nH]1,-96.1*
CN(Cc1cc2n(n1)CCCNC2)Cc1noc2c1CCCC2,4.0
CN(CCC1CCOCC1)C(=O)CCC(=O)NC1CCCCCCC1,5.7
COc1ccc(C[C@@H]2CCn3cc(nn3)COCCCNC2=O)cc1,25.1
Cc1cccc(CN2CCN(C(=O)c3cn(-c4ccccc4)nn3)C(C)C2=O)c1 (stereo unspecified),-34.6
COc1ccc(-c2cc(C(=O)NC3=NS(=O)(=O)c4ccccc43)nn2C)cc1,22.6
c1cnc(NCc2n[nH]c3c2CCN(CC2CC2)C3)nc1,4.7
Cc1ccc(NS(=O)(=O)c2ccc3[nH]c(=O)ccc3c2)cc1Cl,-76.8
CO[C@H]1CN(C)C(=O)c2cc(NC(=O)c3cnccn3)ccc2OC[C@@H](C)NC[C@@H]1C,-0.4
CNC[C@@H]1OCc2ccccc2-c2ccccc2C(=O)N([C@H](C)CO)C[C@@H]1C,-40.0
O=C(NCCc1nc(-c2ccc(Cl)cc2)n[nH]1)C1(c2ccccc2)CCCCC1,-42.5
COc1cc(-c2nc(Cn3ccn4nc(-c5ccccc5)cc4c3=O)c(C)o2)cc(OC)c1OC,-35.5
CN1CCN(C(=O)C[C@H]2CC[C@@H]3[C@H](COc4ccc(NC(=O)c5cccs5)cc4C(=O)N3C)O2)CC1,-5.2
O=C(NCc1ccc(F)cc1)c1c(O)c2ccccc2[nH]c1=O,104.2
O=C1NCC2(CCCN(C(=O)c3ccc4c(c3)OCCO4)CC2)O1 (stereo unspecified),-54.0
Cc1ccsc1C(=O)Nc1ccc(-c2nc(-c3ccccc3)co2)cc1,111.7
CN1C[C@H](O)COC[C@H]2O[C@@H](CC(=O)NC3CCCC3)CC[C@@H]21,21.2
COc1ncccc1-c1ncccc1NC(=O)C(C)C,5.8
Cc1ccsc1C(=O)N1CCc2nc(NC(C)C)nc(N(C)C)c2C1,-17.7
Clc1cccc(Cl)c1/C=C/c1ccn[nH]1,-88.8*
O=C(c1ccc(Br)cc1)N1CCc2c([nH]c3ccccc23)C1c1ccc(Cl)cc1 (stereo unspecified),-94.9*
Cc1oc(-c2ccccc2)nc1Cn1c(=O)c2cccnc2n(-c2ccccc2)c1=O,15.7
Cc1nn(C)c(C)c1-c1cc(C(=O)Nc2ccc(OCCN3CCCCC3)cc2)[nH]n1,-6.8
Cc1[nH]nc(-c2ccc(O)cc2O)c1-c1nc2ccccc2s1,-1.5
CC(C)N(C(=O)Cn1nc(-c2cccc3ncccc23)oc1=O)C(C)C,-5.5
COc1ccc(-c2nc(CN(c3cccc(OC)c3)S(=O)(=O)c3ccccc3)c(C)o2)cc1,-55.4
CCOC(=O)c1c(-n2c(C)nc3ccccc3c2=O)sc2c1CCCC2,-15.8
CCN1C(=O)C2(c3ccccc31)c1[nH]c3ccccc3c1CCN2C(C)=O (stereo unspecified),i
Cc1ccc(C(=O)N2CCC3(CC(Oc4cccnc4)CO3)C2)cc1 (stereo unspecified),-0.1
COCC(=O)N1CC2(C1)CN(Cc1cccc(F)c1)[C@@H](CO)c1c2c2ccc(OC)cc2n1C,-22.6
Nc1nc(-c2ccc(Cl)s2)cs1,121.9
COCC1CN(S(=O)(=O)C2CC2)Cc2nccn2C1 (stereo unspecified),194.7
CCCCCCCCCCCCCCCC(=O)OC(C)C,14.0
CN1CCCC2(CCN(C(=O)c3nc4ccccc4c(=O)[nH]3)C2)C1=O (stereo unspecified),61.8
C[C@H](NC(=O)Cc1cc(F)cc(F)c1)C(=O)N[C@@H]1C(=O)N(C)c2ccccc2-c2ccccc21,-83.1*
Cc1ccc2cc(NC(=O)CC(CC(=O)O)c3ccccc3)ccc2n1 (stereo unspecified),51.0
O=C(CN1CCOCC1)N1[C@H](CO)[C@@H]2c3ccccc3NC[C@@H]21,1.5
CCS(=O)(=O)N1Cc2cc(C(=O)NCC3CC3)nc(-c3cccc(-c4cccnc4)c3)c2[C@H]1CCO,-33.2
Cn1cc(CN2CCCC3(CCC(=O)N3)CC2)cn1 (stereo unspecified),-17.8
CNC[C@@H]1Oc2ccc(NC(=O)CCC(F)(F)F)cc2C(=O)N([C@H](C)CO)C[C@@H]1C,9.0

# Three consecutive compounds out of the list so far, quoted:
SMILES,Tgondii IFNg
Nc1nc(-c2ccc(Cl)s2)cs1,121.9
COCC1CN(S(=O)(=O)C2CC2)Cc2nccn2C1 (stereo unspecified),194.7
CCCCCCCCCCCCCCCC(=O)OC(C)C,14.0

# Carrying on:
SMILES,Tgondii IFNg
OC[C@@H]1[C@@H](c2ccc(C#Cc3ccccc3F)cc2)[C@H]2CN(CC3CCOCC3)CCCCN12,-52.0
Cc1ccc(CN(CCN2CCOCC2)C(=O)c2ccccc2-c2ccccc2)o1,14.3
CN1c2ccc(Br)cc2[C@@H]2[C@@H](CCN2C(=O)c2ccc(F)cc2)[C@H]1CO,5.3
Clc1ccc(CSc2nnc(Cc3ccccc3)o2)cc1,-38.2
CCOc1ccc(-c2nc(CN3CCN(C(=O)Nc4ccc(C)cc4Cl)CC3)c(C)o2)cc1,2.3
Cc1ccc(S(=O)(=O)N[C@H]2CC[C@H](CC(=O)NCc3ccncn3)O[C@@H]2CO)cc1,-34.4
Cn1cc(CN2CCCC2c2cncc(Nc3ccccn3)n2)c2cc(F)ccc21 (stereo unspecified),-99.7*
C[C@@H]1CCCCO[C@@H](CN(C)C(=O)CCCN(C)C)[C@@H](C)CN([C@H](C)CO)C(=O)c2cc(NC(=O)Nc3ccc4c(c3)OCO4)ccc2O1,-35.2
COc1ccc2[nH]cc(CCNC(=O)c3sc4ncnc(N(C)C5CCCCC5)c4c3C)c2c1,-1.7
CCOCc1nnc(NC(=O)C2(C)CC(=O)N=C3C=C(C)C=CN32)s1 (stereo unspecified),61.3
O=C1Nc2ccc(Cl)cc2/C1=c1/sc2n(c1=O)CN(c1ccc3c(c1)OCO3)CN=2,-17.0
CC(C)C(=O)c1cc(-c2csc(-c3cnccn3)n2)n2ccccc12,-13.7
C/C=C/c1ccc([C@@H]2[C@@H](CN(C)C(C)=O)N(C(=O)NC(C)C)[C@H]2CO)cc1,5.1
Cc1ccc(S(=O)(=O)N2CCC(N3CCCC3)CC2C(=O)O)cc1 (stereo unspecified),2.6
CN(C)CCN1C(=O)CCC12CCCN(C(=O)c1ccsc1)CC2 (stereo unspecified),176.2
COc1ccc(S(=O)(=O)Nc2ccc3c(c2)C(=O)N([C@@H](C)CO)C[C@H](C)[C@H](CN(C)C(=O)Nc2c(C)noc2C)OCCCC[C@@H](C)O3)cc1,-49.8
O[C@@H]1CN(Cc2ccc(-c3ccn[nH]3)o2)CC[C@H]1c1ccc2c(c1)OCO2,21.3
C[C@@H]1CCCCO[C@H](CN(C)S(=O)(=O)c2cn(C)cn2)[C@@H](C)CN([C@H](C)CO)C(=O)c2cc(NC(=O)Nc3cccc4ccccc34)ccc2O1,i
CCCc1[nH]ncc1C(=O)N1CCCC(N2CCN(c3ccccc3F)CC2)C1 (stereo unspecified),-6.7
CC(C)(C(=O)NCC(F)(F)C(F)(F)F)C(=O)N[C@@H]1C(=O)Nc2ccccc2-c2ccccc21,-89.0*

# Entries above with an aryl thioether with sulfur outside any ring, in the order listed:
SMILES,Tgondii IFNg
O=C(OCC#CCSc1nc2ccccc2s1)c1ccco1,62.1
Cc1cc(CSc2nc3ccccc3[nH]2)c(C)cc1CSc1nc2ccccc2[nH]1,-96.1*
Clc1ccc(CSc2nnc(Cc3ccccc3)o2)cc1,-38.2

# Later entries:
SMILES,Tgondii IFNg
Cn1ccc2cc(S(=O)(=O)N3CCC(C(=O)NCc4ccccn4)CC3)ccc21,24.0
CCc1cc(C(=O)c2ccc(OC)cc2)c(NC(=O)CCC(=O)O)s1,-12.7
Cc1ncc(-c2ccncc2)c(CN(C)S(=O)(=O)c2ccc3c(c2)NC(=O)C(C)O3)n1 (stereo unspecified),1.3
Fc1ccc(CCC2CCCNC2)cc1F (stereo unspecified),-9.5
COc1ccc(-c2nc(Cn3nnc(-c4nc(-c5ccc(F)cc5)no4)c3C)c(C)o2)cc1,3.0
CCOC(=O)c1nc(NCc2ccc(CC)cc2)c2ccccc2n1,-44.4
Cc1cc(-n2cnnc2C(C)n2cccn2)n(C)n1 (stereo unspecified),0.9
N[C@@H](Cc1ccc(O)cc1)C(=O)N1CCc2onc(-c3ccccc3)c2C1,8.9
CCc1c(C(=O)N2CCC3(CC2)CN(C)CCN3C)[nH]c2ccccc12,4.7
COc1ccc(-c2ccc(C3[C@@H]4CN(S(=O)(=O)c5ccccc5C)C[C@H]3N4)cc2)cc1 (stereo partly specified),-31.6&-49.3
COc1ccc(CNC(=O)Cn2c(=O)cc(-c3nc(C)no3)c3ccccc32)cc1OC,17.6
CC(NC(=O)CCC(=O)NC1CCCC1)c1ccccc1-n1cccn1 (stereo unspecified),-0.5
O=C(CC1N=C2c3ccccc3N=C(SCc3ccccc3F)N2C1=O)NCCc1ccccc1 (stereo unspecified),18.8
O=C(O)CC1C(=O)NC(=S)N1c1ccccc1 (stereo unspecified),8.5
CC(=O)N1CC2(CCN(C(=O)Cc3ccccc3)CC2)CC1C(=O)O (stereo unspecified),1.5
CCn1cc(S(=O)(=O)NCC2(N3CCOCC3)CCCCC2)cn1,-30.3
c1ccc2c3c(c(CN4CCCCC4)cc2c1)COC3,-34.3
COC(=O)c1sccc1NC(=O)c1ccno1,38.7
CCc1nc(SCC(=O)N2Cc3cnc(-c4ccccc4)nc3C2)n[nH]1,86.1
COc1ccc2c(C)c(CC(=O)N3CCn4cncc4C3)c(=O)oc2c1,0.1
CCC1(O)CCCN(c2nc(C)cc(C3CCC3)n2)C1 (stereo unspecified),9.0
COC(=O)c1cccc(C(=O)N2Cc3cnc(CC(C)C)nc3C2)c1,5.7
C=CCn1c(-c2ccc(S(N)(=O)=O)cc2)n[nH]c1=S,56.5
CCc1nc(-c2cncnc2C2CCCNC2)no1 (stereo unspecified),-8.7
CC(=O)N1CC23C=CC(CC2CC12CCCCCC2)O3 (stereo unspecified),14.6
Cc1nccc(-c2cccc(NCc3cccs3)c2)n1,98.8
COCC(=O)N1C[C@H](C)[C@H](OC)CN(C)C(=O)c2ccc(NC(=O)Nc3cccc(F)c3)cc2OC[C@H]1C,272.0
OCCN(Cc1cccnc1)Cc1cccc(Oc2ncccn2)c1,-21.4
CNC(=O)[C@]12CCO[C@H]1CCN(CCOc1ccc(Cl)cc1)C2,-0.7
COc1ccc(-c2ccc(SCC(=O)Nc3ccccc3C(F)(F)F)nn2)cc1,50.6
CC(C)c1cn(CC[C@H]2CC[C@@H](NS(=O)(=O)c3ccc(F)cc3)[C@@H](CO)O2)nn1,-12.3
O=C(c1cccs1)N1CC2CN(Cc3cccc(F)c3)CC2C1 (stereo unspecified),-12.5
C/C(=N\N=C1\NC(=O)C(CC(=O)Nc2ccc(Cl)cc2)S1)c1ccco1 (stereo unspecified),-22.9
COc1ccc(C2(NCc3ccc(O)c(CN4CCN(C)CC4)c3)CCCC2)cc1,45.3
COC(=O)c1ccc(S(=O)(=O)NCc2csc3ccc(Cl)cc23)n1C,-56.7
CCOc1ccccc1-c1nc(CN(c2ccccc2OC)S(=O)(=O)c2ccccc2C)c(C)o1,-47.6
CCN(CC)c1ncnc2c1[nH]c1ccccc12,-51.4
COc1cc(C(=O)NCCc2csc(-c3ccc(F)cc3)n2)cc(OC)c1OC,32.0
CCCn1nc(C)c(-c2cc(C(=O)Nc3cc(Cl)c4oc(C)cc4c3)[nH]n2)c1C,-52.5

# From PubChem BioAssay

# The list is partial; the hit share may differ from the screen's.
